# Menin MLL FP FL = inhibitors of human menin-MLL interaction, wild-type MLL peptide; AID 1766; 290,000 tested, under 10 active; Fluorescence polarization, fluorescein-MLL peptide displacement from menin; FP activity change, % at 61.4 µM; inconclusive = falling polarisation curve, or a change in total fluorescence; inactive = total fluorescence flat and polarisation flat or rising; no compound was filed as active; the % refers to the polarisation; negative = inhibition;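 note: % of control where 0% means no effect; inhibitors lower the polarisation; unlabelled MLL peptide was the positive control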
# ClpP mod = qHTS Assay for Activators of ClpP | ATP-dependent Clp protease proteolytic subunit (Bacillus subtilis (strain 168)), P80244 | purified B. subtilis ClpP, FRET peptide cleavage, 20 min | Potency, µM (highest dose often 57.5 µM), without a hit: at the top dose activity change, negative = active | 1.9% of 340,000 active; active = well fitted falling curve with a large enough effect; inconclusive = small, poorly fitted or top-dose-only effect; inactive = no such curve, though single readings can be large or run the other way; note: potency is the fitted concentration of half-maximal effect; the source files actives as falling curves though it sought activators and does not explain the sign; nearly all actives have a fitted effect of over 65% in size; many hits overshoot -100%
# Target sequence (P80244 whole entry, looked up): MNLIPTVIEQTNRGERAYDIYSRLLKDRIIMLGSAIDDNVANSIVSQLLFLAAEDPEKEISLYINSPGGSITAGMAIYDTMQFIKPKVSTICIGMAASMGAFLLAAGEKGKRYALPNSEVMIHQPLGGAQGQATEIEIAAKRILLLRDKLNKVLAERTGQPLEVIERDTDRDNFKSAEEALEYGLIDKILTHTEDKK
#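 Buffer: 100 mM Tris/HCl pH8, 100 mM KCl, 0.05% low protease BSA, 2.5% glycerol, 0.01% Tween-20. ClpP 10 microg/mL final; 20 min RT; delta FRET normalized to ADEP and DMSO controls.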
# D2 agonist = agonists of human D2 dopamine receptor (beta-arrestin); P14416; DiscoveRx PathHunter D2 beta-arrestin, luminescence, 90 min; 100% = 57 uM dopamine signal; activation, % (no concentration beside the values); 0.084% of 360,000 active; AID 624465; in the data active = activation above about 40%; inconclusive = about 15% to 40%; inactive = below about 15%; note: compound concentration not given in the record; the text of the record calls up to 30% inactive
# Target sequence (P14416 whole entry, looked up): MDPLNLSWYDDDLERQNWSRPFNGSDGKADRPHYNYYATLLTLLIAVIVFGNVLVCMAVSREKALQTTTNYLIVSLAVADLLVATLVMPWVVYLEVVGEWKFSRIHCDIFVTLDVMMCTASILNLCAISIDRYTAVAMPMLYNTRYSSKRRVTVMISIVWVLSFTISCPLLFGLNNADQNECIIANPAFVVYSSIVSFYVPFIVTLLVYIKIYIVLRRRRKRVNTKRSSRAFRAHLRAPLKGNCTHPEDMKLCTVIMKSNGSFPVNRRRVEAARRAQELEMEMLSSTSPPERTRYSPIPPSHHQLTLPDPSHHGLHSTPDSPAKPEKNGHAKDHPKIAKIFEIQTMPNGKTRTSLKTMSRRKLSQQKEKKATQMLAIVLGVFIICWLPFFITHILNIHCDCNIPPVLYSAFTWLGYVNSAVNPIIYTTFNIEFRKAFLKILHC
#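 DiscoveRx PathHunter D2 beta-arrestin cells (2,100/well) attached overnight, then compound-stimulated 90 min at 37 C in HBSS/10 mM HEPES/0.1% Tween-20 buffer; beta-galactosidase complementation read by luminescence after 1 h at ambient temperature. Dopamine 57 uM final (EC100) as control.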
# Sfp inh = inhibitors of Bacillus subtilis Sfp phosphopantetheinyl transferase | Q9F4F7 | Biochemical Sfp PPTase activity, qHTS | Potency, µM, for the others: max response, negative = inhibition, usual class: inhibitors | 3.5% of 310,000 active; active = well fitted inhibition curve with a large enough effect; inconclusive = small, poorly fitted or top-dose-only effect, or another doubt; inactive = no such curve, though single readings can be large or run the other way;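 note: the enzyme is Sfp with the accession as filed and its product quenches rhodamine fluorescence; potency is the fitted concentration of half-maximal effect; 0% = enzyme reaction without inhibitor and -100% = no enzyme wells; top concentration of the series not given in the record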
#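 Buffer: 50 mM Hepes-Na pH 7.6, 10 mM MgCl2, 0.01% Nonidet P-40, 0.01% BSA. Enzyme 15 nM, pre-exposed to compound 15 min; substrates then added and fluorescence change tracked over 30 min.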
# PINK1 expr mod = PINK1 expression modulation. PINK1 immunofluorescence, high-content cytometry, 24 h. Potency, µM (highest dose often 76.6 µM), for inactives: top-dose activation (PINK1 increase), actives largely listed as activators. 0.2% of 410,000 active; active = well fitted activation curve with a large enough effect; inconclusive = small, poorly fitted or top-dose-only effect; inactive = flat fitted curve, though single readings scatter; cell line not stated here;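 note: potency is the fitted concentration of half-maximal effect; % of control where 0% means no effect; nearly all actives have a fitted effect of over 65% in size; a mitochondrial uncoupler was the plate control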
#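 Readout is PINK1 immunofluorescence, quantified alongside mitochondrial, cell and nuclear markers by laser-scanning microplate cytometry. Cells from a stable line were exposed to compound titrations (5 concentrations) for 24 hours, with CCCP controls.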
# gsp antag = antagonists of gsp mutant (McCune-Albright syndrome). gsp-mutant cells, cAMP HTRF, 30 min; control for the full effect not named in the record. Potency, µM (top dose mostly 76.9 µM), for inactives: at the highest dose activity change, negative = inhibition, most hits filed as inhibitors. 0.4% of 340,000 active; active = falling curve of any shape with a large fitted effect; inconclusive = falling curve, mostly with a smaller effect; inactive = flat or rising curve; cell line not stated here;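 note: intracellular cAMP measured with PDE inhibitor Ro 20-1724 present during compound exposure; potency is the fitted concentration of half-maximal effect; % is set by controls: 0 for no effect and ±100 for the full control effect; nearly all actives have a fitted effect of over 65% in size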
#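 HTRF cAMP read-out (cAMP-d2 plus anti-cAMP antibody-K in lysis buffer, 30 min RT). Before lysis, cells are exposed to compounds with […] for 30 min at 37C in DPBS containing Ca/Mg, BSA and Tween 20.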
# gsp ag = activates gsp, the McCune-Albright syndrome mutation | gsp mutant cells, cAMP HTRF, 30 min; control for the full effect not named in the record | Potency, µM (top dose mostly 76.9 µM), inactives show top-dose activation (cAMP increase), hits mostly activators | 0.13% of 340,000 active | AID 624287; active = well fitted activation curve with a large enough effect; inconclusive = small, poorly fitted or top-dose-only effect, or another doubt; inactive = no such curve, though single readings can be large or run the other way; cell line not stated here;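 note: phosphodiesterase inhibitor Ro 20-1724 added with compounds to block cAMP breakdown; potency is the fitted concentration of half-maximal effect; nearly all actives have a fitted effect of over 60% in size; about a fifth of the inactives were tested at one dose only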
#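 Cells stably selected in G418 were plated at 2000/well, grown 16-24 hr, then given compounds in DMSO with the PDE inhibitor […] (300 uM solution added) for 30 min at 37C; cAMP was read by HTRF.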
# An asterisk follows results filed as active; ? = inconclusive; . = not tested or not shown; & = joins results of further samples; [ ] = dose if it differs, or a comment.
Molecule,gsp ag,gsp antag,Menin MLL FP FL,D2 agonist,PINK1 expr mod,Sfp inh,ClpP mod
COc1ccc(C2/C=C\CN(Cc3ccc(N(C)C)cc3)CC(=O)N2Cc2ccc(F)cc2)cc1 (configuration not stated),.,-18%,3.8,-2.8,-0.6%,9%,-1.2%
O=S(=O)(c1ccc(N2CCCC2c2nc3ccccc3s2)nc1)N1CCOCC1 (configuration not stated),4%,-8%,-1.0,-3.3,3.4%,-4%,-1.3%
O=C(Cc1ccccc1)NCC(=O)N1CCN(Cc2cccc(Cl)c2)CC1,-1%,-5%,.,-3.4,-0.4%,.,0.2%
CCOC(=O)/C=C/C(=O)Nc1cccc([N+](=O)[O-])c1,-26%,-18%,-6.6,3.8,-2.2%,2.8µM*,0.9%
Cc1ccc(Cn2nc(C)c(NC(=O)c3noc4c3CCCCC4)c2C)cc1,-28%,-1%,-0.6,2.5,-3.4%[38.3 µM],-5%,-1.0%
O=C(CCNc1n[nH]c(=O)[nH]c1=O)N1CCCCC1,-11%,14%,0.0,-2.8,7.7%[38.3 µM],22%,1.7%
COc1ccccc1C(=O)OCc1c(F)cccc1Cl,9%,12%,3.7,-0.6,0.9%,-4%,-0.9%
CC(C)C(C(=O)NC(C)(C)C)N1C(=O)c2ccccc2C1=O (configuration not stated),-26%,9%,5.5,-1.6,7.3%,5%,-0.7%
O=C(CCS(=O)(=O)c1ccccc1)Nc1ccc2c(c1)OCO2,12%[15.4 µM],7%,0.6,-4.4,-1.4%,10%,-1.3%
CCCc1nc2oc3c(=O)[nH]cnc3c2c2c1CCCC2,-4%,-3%,-0.2,-4.7,1.0%,16%,?
O=C(Nc1ccc2c(c1)CCC2)C1CCCN(c2ncccn2)C1 (configuration not stated),0%,9%,-0.9,-0.8,1.6%[38.3 µM],0%,-15%
C=C(c1ccccc1)c1ccc(N(C)C)cc1,0%,6%,?,-5.3,?,-11%,.
O=C(O)C1C2CCC(O2)C1C(=O)Nc1ccc(OC(F)F)cc1 (configuration not stated),12%,13%,5.4,-2.7,7.3%,-10%,.
CC(NC(=O)c1cc(-c2cccs2)on1)c1ccccc1 (configuration not stated),36%,4%,2.8,1.3,?,3%,-4.3%
COC(=O)Cn1cnc2scc(-c3ccc(C)cc3)c2c1=O,8%[15.4 µM],-18%,5.0,-0.7,-1.0%,-2%,-1.0%
Cc1ccc(CC2C(=O)N(CC(=O)O)C(=O)C2C)cc1 (configuration not stated),-6%,6%,2.7,-1.6,.,25%,-2.6%
Cc1cc(-n2cnnn2)cc(C)c1S(=O)(=O)N(C)c1ccccc1,-3%,-5%,2.7,-0.2,2.6%,11%,.
CCc1ccccc1NC(=S)Nc1cc(OC)c(NC(=O)C(C)C)cc1OC,-9%[15.4 µM],-11%,2.1,5.1,-0.3%,13%,38%
CCN(CC)Cc1cc(C(C)(C)C)cc(N2CCOCC2)c1O,22%,3%,.,0.6,-0.4%,.,.
CC[C@@]12C(=O)N(c3cccc(Br)c3)C(=O)N1[C@H](c1ccc(Br)cc1)[C@@H]1C(=O)N(C(C)(C)C)C(=O)[C@@H]12,-7%,-11%,.,-3.7,1.3%,.,-0.3%
OC[C@@H]1CC[C@@H](Cc2ccc(-c3ccccc3)cc2)O1,.,11%,.,-1.0,0.6%,.,-0.8%
CCOC(=O)C1CCN(C(=O)COc2cc(C)c(Br)cc2C)CC1,1%,-22%,3.1,1.7,3.6%,9%,1.0%
CCOc1ccc(NC(=O)c2sc3nc(N4CCOCC4)c4c(c3c2N)CC(C)(C)OC4)cc1,?,5%,.,-5.5,6.5%,-15%,3.9%
CC1(C(=O)NCC(F)(F)F)CCN1C(=O)Cc1ccc(-c2ccccc2)cc1 (configuration not stated),.,.,.,-2.9,4.2%,.,-3.2%
CC(OC(=O)c1ccccc1O)C(=O)Nc1ccc(Cl)cn1 (configuration not stated),-15%[15.4 µM],-4%,1.3,-2.3,6.7%,-6%,.
c1cncc(CNc2ccnc(-c3ccc4c(c3)OCO4)n2)c1,.,.,-0.3,.,-0.7%,?,.
CCN(CC)c1ccc(CN(C(=O)c2ccco2)C2CCS(=O)(=O)C2)cc1 (configuration not stated),-3%,0%,0.3,-1.2,-11%[38.3 µM],-3%,-0.5%
CC1CCCC(NC(=O)c2ccc3snnc3c2)C1C (configuration not stated),15%,7%,2.0,-5.1,2.2%,18%,-0.5%
COc1cc2c(cc1OC)C(C(=O)N1CCCCC1)C(c1ccccc1F)N(C)C2=O (configuration not stated),-9%,-25%,0.4,0.5,0.1%,-9%,5.4%
CC(=O)c1ccc(S(=O)(=O)N2CCN(C(=O)CSc3ccc(C)c(C)c3)CC2)cc1,-10%[15.4 µM],-5%,?,1.6,0.8%,6%,.
CCC(C)NC(=O)c1ccccc1NC(=O)C(C)N(c1ccccc1)S(C)(=O)=O (configuration not stated),-12%,-38%,-0.4,-1.7,?,-10%,-7.6%
CC(C)Nc1nc(NC(C)C)nc(Oc2ccc(OCc3ccccc3)nn2)n1,?,4%,-1.1,1.0,3.4%,-5%,-3.0%
O=C(NC1CCOC1=O)OCc1ccccc1 (configuration not stated),18%,.,.,-3.1,1.7%,.,-3.5%
CCCCN(CCCC)c1ncnc2nc[nH]c12,?,-16%,5.3,-3.5,-0.2%,9%,-1.2%
O=C(CN1CCN(Cc2ccccc2Cl)C1=O)NCc1ccco1,-15%,2%,3.6,-1.7,0.3%,3%,-1.6%
CC1CCC(C(C)C)C(OC(=O)Cn2c(-c3ccc(Br)cc3)[n+](C)c3ccccc32)C1 (configuration not stated),0%[15.4 µM],7%&9%,-0.1&5.9,1.1&-5.2,-1.5%&-1.5%,?,-1.6%
CC1(C)Cc2nc(Cl)c(C#N)cc2CO1,6%[15.4 µM],-6%,-0.9,-3.3,1.5%,10%,.
COC(=O)CCN(C(=O)c1cc([N+](=O)[O-])cc([N+](=O)[O-])c1)c1ccccn1,-2%[15.4 µM],3%,-0.1,1.7,-0.5%,10%,.
C/C(CC(=O)N(C(C)C)C(C)C)=N\NC(=O)COc1ccc(Br)cc1Br,4%[15.4 µM],6%,-3.0,0.2,4.1%,-5%,.
O=C(O)c1ccccc1/C=N/N1CCN(C2c3ccccc3-c3ccccc32)CC1,?,-8%,2.3,0.1,-0.6%,8%,.
O=C(CCCOc1ccc(Cl)cc1)N1CCCCC1,-46%,11%,1.1,-0.6,.,1%,-1.4%
CC1(C)Cc2nc(N)c(=O)sc2C1,5%,5%,0.4,-3.3,.,17%,-18%
COc1ccccc1NS(=O)(=O)c1ccc(NC(=O)c2[nH]nc(OC)c2[N+](=O)[O-])cc1,-3%[15.4 µM],-41%,.,-5.2,0.0%,-3%,-9.5%
CCC1CCCCN1C(=O)COc1ccccc1NC(C)=O (configuration not stated),13%[15.4 µM],-6%,-0.9,0.5,-1.5%,-14%,.
C=CCN1CC(=O)N2C(C)c3[nH]c4ccccc4c3C[C@H]2C1=O (some centres not stated),?,-4%,-1.0,4.1,4.3%,4%,-9.5%
Cc1ccc(C2(C)NC(=O)N(CC(=O)N3CC(=O)Nc4ccccc43)C2=O)cc1 (configuration not stated),23%,-1%,.,4.4,1.1%,.,.
O=C(N/N=C/c1ccc(O)cc1O)NC12CC3CC(CC(C3)C1)C2,-31%,-6%,1.4,-4.6,6.4%,21%,.
O=C1CC(NC(=O)C(F)(F)F)c2cc3c(cc21)OCO3 (configuration not stated),-5%[15.4 µM],7%,-0.2,3.1,5.6%,-6%,.
COc1cccc(N2[C@@H](CC(=O)O)c3ccc(/C=C/C(=O)O)cc3S2(=O)=O)c1,?,7%,.,-5.1,1.1%,.,-9.8%&-24%
O=C(c1cccc2ccccc12)N1CCN(c2ccc([N+](=O)[O-])c(N3CCOCC3)c2)CC1,1%[15.4 µM],?,2.2,-6.5,2.9%,6%,0.8%
O=[N+]([O-])c1ccc2nc(NS(=O)(=O)c3ccccc3[N+](=O)[O-])sc2c1,-5%,-5%,0.5,-12,0.7%,9%,.
CC(=O)Nc1ccc(/C=C/c2ccc3c([N+](=O)[O-])cccc3n2)cc1,-5%[15.4 µM],9%,-0.2,-2.0,0.8%,20%,0.6%
CN(C)CCN(C)C1CN(Cc2ccc([N+](=O)[O-])cc2)S(=O)(=O)C1 (configuration not stated),?,.,.,0.8,1.3%,.,1.9%
CN(C)S(=O)(=O)c1ccc(NC(=O)CSc2nnnn2C)cc1,11%,-4%,-0.5,-2.6,-1.6%,?,-0.6%
CCOC(=O)C1CCN(C(=O)C23CC4CC(CC(C4)C2)C3)CC1,-29%,-8%,3.1,1.0,-1.3%,11%,-0.6%
Cc1ccccc1Cn1cc(NC(=O)CCCn2nc([N+](=O)[O-])cc2C)cn1,-18%[15.4 µM],-3%,-1.0,-3.7,1.1%,18%,.
O=C(NCc1cccc(Cl)c1)c1ccc2c(c1)OCCO2,-4%[15.4 µM],2%,0.1,-2.8,2.0%,-4%,0.4%
CCOc1ccc(NC(=O)C2CCCN(C)C2)cc1 (configuration not stated),?,3%,2.3,-4.0,0.2%,-3%,-1.4%
COc1ccc(C(C)=NOC(=O)c2c(-c3ccccc3Cl)noc2C)cc1CN1CCOCC1,?,.,.,-2.1,-0.5%,.,-0.7%
Cc1[nH]c2ccc(C(=O)OC(C)C(=O)N(C)c3ccccc3)cc2c1C (configuration not stated),-2%[15.4 µM],-19%,.,0.5,3.2%,.,-3.3%
CN(C)CCOC(=O)CCCCCCCCC(=O)OCCN(C)C,3%[15.4 µM],-5%,3.2,-5.0,1.9%,19%,.
COc1ccc(/C=C/C(=O)N2CC(C)OC(C)C2)cc1OC (configuration not stated),0%,7%,-3.2,0.6,0.1%,16%,?

# Screening results (PubChem)

# Rows were taken by chance. About 5.1% of those tested had a hit in this group.
